ugtP null kill – compounds lethal to S. aureus RN4220 ugtP deletion mutant | OD600 growth, 16 h; some inactives read as strong as hits | growth inhibition, % (no concentration beside the values) | 330,000 tested, 0.54% active;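 active means z-score under -3 and OD600 up to 0.15 on both plates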;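 further: plate controls were untreated wells for no effect and antibiotic for full effect; wells of about 80 µL received 100 nL stock; the first replicate is given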
BJeLR viability – kills HRASV12-expressing BJeLR cells. BJeLR (HRASV12) viability, CellTiter-Glo ATP luminescence, 48 h; reference of the scale not given here. inhibition, % (test concentration not listed). 300,000 tested, 0.17% active. AID 1554;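 active means replicate mean above 50%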;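 further: 50 nL library stock added to about 25 µL; numbers are from one replicate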
Mtb hypoxia inh – inhibitors of hypoxia-regulated fluorescent reporter in Mycobacterium tuberculosis; fluorescence inhibition, % (no concentration beside the values); M. tuberculosis hypoxia-regulated fluorescent reporter, fluorescence; AID 1159583; 300,000 tested, 0.1% active;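 active means 35 to 45% if threefold the growth effect, above 45% if 1.5-fold the growth effect; inactive means the rest, general growth blockers included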;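 further: wells of about 50 µL received 100 nL stock; 0% = vehicle wells and 100% = reference inhibitor wells; whole bacteria with a GFP reporter of the hypoxia response; strong numbers were not always called active; many hits fall short of the cut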
PrP 5UTR inh – suppresses PrP 5' UTR mRNA reporter expression; cell-based PrP 5' UTR mRNA reporter, plate reader; inhibition, % (no concentration beside the values); 340,000 tested, 0.35% active; AID 488862;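 active means every replicate at 50% or more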;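 further: 0 = median of the neutral control wells; tested in H4 reporter cells; numbers are from one replicate; inactives centre near -14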
Autofluor counter – flagged as autofluorescent in microsphere protease counterscreen; 360,000 tested, 3.1% active; fluorescence intensity (test concentration not listed); compound autofluorescence counterscreen, microsphere flow cytometry; stronger effect = higher value;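 active means at least 3 SD above the mean of all compounds, about 16000 in these data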;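 further: 100 nL of 1 mM stock went into each well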
RN4220 kill – kills Staphylococcus aureus RN4220 | S. aureus RN4220 growth, OD600, 16 h | inhibition, % (test concentration not listed) | 330,000 tested, 0.33% active | AID 1259311;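 active means z-score of -3 or lower and OD600 up to 0.18 on both plates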;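 further: plate controls were untreated cells for no effect and reference antibiotic for full effect; stock transfer was 100 nL into about 80 µL; one replicate is shown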
Mtb hypoxia inh growth – recorded beside Mtb hypoxia inh, whose call it bears; growth inhibition, %; measured here: M. tuberculosis growth (absorbance);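 0% = vehicle and 100% = reference antibiotic; read after six days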
Numbers without * were called inactive; . = not tested or not shown. An unsorted share of the library; any-hit rate near 4%.

SMILES	ugtP null kill	BJeLR viability	Mtb hypoxia inh	Mtb hypoxia inh growth	PrP 5UTR inh	Autofluor counter	RN4220 kill
CC1(C)C2CCC1(C)C(OC(=O)c1ccccc1C(=O)O)C2 (stereo not given)	10.0	-5.6	14.5	7.3	-27.2	4490	8.5
Cc1ccc(CN2CCN(Cc3c(C)nn(-c4ccc(F)cc4)c3C)CC2CCO)o1 (stereo not given)	1.1	1.0	9.4	-3.1	-22.0	3962	-0.9
CC(C)(COC(=O)C(c1ccccc1)c1ccccc1)CN1CCOCC1	11.7	.	7.3	4.3	-6.4	4047	6.7
COc1ccc(C(=O)Nc2cccc(C(=O)N3CCCCC3)c2)cc1	-1.1	-2.8	-0.1	9.3	-9.1	6573	-2.1
CCCNC(=O)c1ccc(COc2ccc(CCC)cc2OC)o1	10.3	-0.9	3.5	-2.5	-20.6	2940	2.1
C=CCOC(=O)C1=C(C)OC(N)=C(C#N)C1c1ccc(OC)c(CSc2ccccn2)c1 (stereo not given)	-0.4	-13.4	5.6	0.3	-19.1	2561	11.2
COc1ccc(C(=O)/C=C\c2ccc(NC(=O)c3cccs3)cc2)cc1	-8.4	0.3	-2.3	5.9	-34.0	5256	-1.2
O=C(NCCN1C(=O)S/C(=C\c2cccs2)C1=O)[C@H](Cc1ccccc1)N1C(=O)c2ccccc2C1=O	6.4	-8.2	17.2	11.4	.	.	3.4
Cc1ccc(S(=O)(=O)N2CCCCC2)cc1NC(=O)c1cnccn1	4.2	.	0.4	-7.4	-14.1	5827	2.0
CN1CCc2c(C#N)c(N3CCCCC3)nc(NCc3ccccc3)c2C1	16.7	-11.5	6.5	21.4	-43.6	4831	-2.4
CC(=NOC(=O)c1ccc(C)cc1)C(=O)c1ccc(Br)cc1	0.7	.	1.5	-6.9	.	.	3.6
COc1ccc(N2C(=O)CC(N3CCN(S(=O)(=O)c4c(F)cccc4F)CC3)C2=O)cc1OC (stereo not given)	5.3	-3.5	1.7	2.3	-12.3	8555	4.1
Cc1ccc(C(=O)NCCSc2ccc(Cl)cc2)cc1S(=O)(=O)Nc1ccccc1	0.3	-3.6	12.1	6.1	-3.3	7001	16.6
CC1CC(=O)N(c2ccc(NCCc3ccc(O)cc3)c([N+](=O)[O-])c2)C1=O (stereo not given)	-5.9	4.7	17.6	12.5	15.4	4154	4.3
CCOc1cc(C)c(S(=O)(=O)Nc2ccc(Cl)cn2)cc1C	-5.6	-6.2	3.8	-1.3	-3.5	4309	4.2
CN(C)/C=N/C1=C(C#N)C(c2ccc(Br)cc2)c2ccc3ccccc3c2O1 (stereo not given)	.	-1.0	.	.	-9.1	3637	.
CCc1cc(=O)oc2cc(C)cc(OCC(=O)N3CCC(C(=O)O)(c4ccccc4)CC3)c12	6.2	-5.3	.	.	-5.9	5566	3.3
O=C(NN=Cc1cc(Br)c(O)c(Br)c1)C1CC1	10.0	.	7.3	13.3	.	.	15.9
COc1ccc(CC(=O)N(C)CC(=O)Nc2ccccc2SC)cc1	4.7	-6.8	9.6	3.4	-11.0	5722	6.3
Cc1cccc(NC(=O)c2ccc(-c3ccccc3[N+](=O)[O-])o2)c1	6.1	-2.3	10.0	12.0	-18.4	5580	9.2
Cc1ccc(C=NNc2nc3ccccc3s2)o1	-22.0	.	-0.4	-2.1	.	.	-0.4
O=C(O)c1ccc(CNCc2cccc(Oc3ccccc3)c2)cc1	4.4	8.8	-7.6	1.8	-16.5	3777	3.8
COc1ccc(CNC(=O)c2cc(C3CC3)nc3c2cnn3C(C)C)cc1	-3.1	.	-0.3	3.3	-21.6	3317	-8.0
CCn1cc(C(=O)OC)c(=O)c2ccc(C)nc21	9.9	3.1	1.9	0.2	-18.5	3928	4.8
CCCCNC(=O)Cn1cnc2sc(C)c(S(=O)(=O)N3CCN(c4ncccn4)CC3)c2c1=O	2.2	3.7	5.1	7.4	-22.7	2206	1.9
Next part.
SMILES	ugtP null kill	BJeLR viability	Mtb hypoxia inh	Mtb hypoxia inh growth	PrP 5UTR inh	Autofluor counter	RN4220 kill
O=C(c1ccccc1)N1CCn2c1nc1ccccc12	8.7	-0.1	11.6	9.0	0.7	3984	4.7
CNC(=O)c1c2c(nc3ccc(Br)cc13)CCCC2	82.6*	-4.2	7.2	1.1	-2.6	2022	2.0
O=[N+]([O-])c1cccc(S(=O)(=O)c2ccc(NCCOCCO)c([N+](=O)[O-])c2)c1	3.1	-9.0	-3.7	-1.5	-15.0	3430	4.4
O=c1cc(CN2CCN(Cc3ccccc3)CC2)c2cc(Cl)ccc2o1	.	9.3	.	.	-22.8	3887	.
COc1ccccc1CNC(=S)Nc1ccc2nc(N3CCN(C)CC3)cc(C)c2c1	11.3	2.3	-4.5	3.9	-26.5	4572	3.5
Cc1ccc(NC(=O)CN2C(=O)N/C(=C\c3cccnc3)C2=O)cc1	13.3	5.6	-8.6	-2.4	-10.8	4170	6.4
COc1ccc(N(CC(=O)Nc2ccccc2F)S(=O)(=O)c2ccc(C)c([N+](=O)[O-])c2)cc1	8.1	5.9	-1.6	-1.8	-20.3	2067	-5.5
CCC1=C(OC(=O)N(CC)CC)N2C(=O)OC(=NCCc3c[nH]c4ccccc34)[C@]2(Cc2ccccc2)[C@H]2C1=CC[C@H]1C(=O)N(CC(=O)OC)C(=O)[C@H]12	-10.0	2.2	14.9	3.3	-20.9	3669	-9.1
C=CCn1c(=O)c(C(=O)Nc2ccc(C)cn2)c(O)c2ccccc21	100.5*	-2.0	8.7	2.0	-30.4	3560	96.2*
CC(C)Nc1nc(-c2cccnc2)nc(-c2ccccc2)c1C#N	8.7	-11.5	-4.7	10.4	7.6	3460	2.2
Cc1ccc(C(=O)C2=C(O)C(=O)N(c3ncccn3)C2c2ccc(F)cc2)o1 (stereo not given)	-1.2	-0.2	9.9	15.4	-13.3	3222	0.6
COc1ccc(/C=N/NC(=O)c2cccc(NC(=O)c3ccccc3Cl)c2)c(OC)c1	.	-2.3	.	.	-21.3	2948	.
COc1ccc(-c2c(NC(=O)CC(C)C)n(C)c3ccccc3c2=O)cc1OC	0.6	4.9	-2.0	8.0	0.4	3179	3.0
O=C(COC(=O)c1cccs1)Nc1ccccc1C(F)(F)F	3.4	4.3	5.9	-0.2	-12.0	3980	-0.6
COc1ccc2ncc(OC(C)=O)cc2c1	15.1	0.5	9.5	-5.2	-21.0	2132	3.6
COc1ccccc1CC(=O)Nc1ccc(S(=O)(=O)N2CCN(C)CC2)cc1	7.1	-7.8	9.5	-8.7	-15.6	4917	4.3
CCc1nn(CCCC(=O)NCc2ccc(OC(C)C)cc2)c(=O)c2cc3occc3n12	5.0	-6.4	-2.5	2.0	-3.4	4104	-11.3
COc1ccc(N(C(=O)COc2ccc(C)cc2)S(=O)(=O)c2ccc(C)cc2)cc1	3.4	14.2	-7.3	3.6	-29.7	2543	1.7
Cc1ccc(C)c(-n2nnnc2SCC(=O)NNC(=O)c2ccco2)c1	8.3	1.4	10.0	4.4	-9.1	3388	2.5
CCCN1CCN(C(=O)C2CCN(c3ncnc4c3nc3n4CCCCC3)CC2)CC1	4.1	10.4	4.6	4.8	-9.8	4780	2.0
COC(=O)C1CCN(C(=O)COC(=O)/C=C/c2ccc(O)c(OC)c2)CC1	1.6	.	6.9	4.4	.	.	1.2
Cc1cc(C(=O)NC(=S)Nc2cccc(NC(=O)C(C)C)c2)ccc1[N+](=O)[O-]	-9.7	-6.8	-9.5	-4.4	-23.0	1930	4.0
Cc1ccc(C(=O)c2coc3c2C(=O)C(=O)c2ccccc2-3)cc1	52.0	6.7	8.8	10.3	-65.1	4005	39.4
COCC(C)N=CC1=C(O)CC(C)(C)CC1=O (stereo not given)	8.5	0.0	0.9	7.2	-19.1	5014	4.6
CCCCCCCNC(=O)C1(CC2CC(c3ccccc3)=NO2)CCNCC1 (stereo not given)	-1.6	.	17.7	16.6	-12.6	2875	1.4

Results in RN4220 kill and ugtP null kill, for some of the entries so far:
SMILES	RN4220 kill	ugtP null kill
COc1ccc(C(=O)/C=C\c2ccc(NC(=O)c3cccs3)cc2)cc1	-1.2	-8.4
O=C(NCCN1C(=O)S/C(=C\c2cccs2)C1=O)[C@H](Cc1ccccc1)N1C(=O)c2ccccc2C1=O	3.4	6.4
Cc1ccc(S(=O)(=O)N2CCCCC2)cc1NC(=O)c1cnccn1	2.0	4.2
CN1CCc2c(C#N)c(N3CCCCC3)nc(NCc3ccccc3)c2C1	-2.4	16.7
CC(=NOC(=O)c1ccc(C)cc1)C(=O)c1ccc(Br)cc1	3.6	0.7
COc1ccc(N2C(=O)CC(N3CCN(S(=O)(=O)c4c(F)cccc4F)CC3)C2=O)cc1OC (stereo not given)	4.1	5.3

Given in CSV form: part of the list above.
Molecule,ugtP null kill,BJeLR viability,Mtb hypoxia inh,Mtb hypoxia inh growth,PrP 5UTR inh,Autofluor counter,RN4220 kill
Cc1ccc(C(=O)C2=C(O)C(=O)N(c3ncccn3)C2c2ccc(F)cc2)o1 (stereo not given),-1.2,-0.2,9.9,15.4,-13.3,3222,0.6
CCCCCCCNC(=O)C1(CC2CC(c3ccccc3)=NO2)CCNCC1 (stereo not given),-1.6,.,17.7,16.6,-12.6,2875,1.4

(further entries)
SMILES	ugtP null kill	BJeLR viability	Mtb hypoxia inh	Mtb hypoxia inh growth	PrP 5UTR inh	Autofluor counter	RN4220 kill
COc1ccc(N2C(=O)C(=O)/C(=C(/O)c3ccc(C)cc3)C2c2cccnc2)cc1 (stereo not given)	.	4.8	.	.	-9.5	2526	.
CON(C)C(=O)c1ccccc1N(C)C(=O)OC(C)(C)C	-4.1	.	19.7	7.7	-13.2	2784	8.8
CN(Cc1nccn1C)C(=O)C1CCC(=O)N(CCc2ccc(Cl)cc2)C1 (stereo not given)	4.6	2.3	4.8	11.7	-12.9	5526	-0.7
COc1ccc(/C=C/C(=O)OCC(=O)c2c(N)n(C)c(=O)n(C)c2=O)cc1	9.6	-2.0	-1.3	11.3	2.7	2467	1.2
NS(=O)(=O)c1cccc(NC(=O)COC(=O)Cc2ccc(Cl)cc2)c1	6.2	0.1	4.2	3.2	-9.2	2259	4.0
CSCC[C@H](NC(=O)Cc1ccc(Cl)cc1)C(=O)N1CCC2(CC1)NCCc1[nH]cnc12	6.0	-6.7	6.0	7.6	-12.1	6250	1.7
COc1cc(/C=C2\SC(=O)NC2=O)ccc1OCC(=O)N1CCOCC1	-2.5	.	7.3	5.2	-17.6	3715	1.9
CS(=O)(=O)N1CCc2ccccc2C1	-5.9	-2.2	5.0	3.3	-14.0	3270	-9.3
CSc1ccccc1OCc1cc(C(=O)N2CCN(c3ncccn3)CC2)no1	0.4	-3.6	6.2	-1.0	-29.9	5819	7.0
CC(C)c1ccc(NC(=O)NC2CCCCC2)cc1	-4.2	16.7	20.8*	53.0*	-96.0	10373	4.9
COc1ccc(CNCc2ccc3c(c2)OCO3)c(OC)c1OC	0.6	1.3	13.7	-0.1	-37.2	4340	5.4
Cc1ccc(C(=O)NCC(=O)OCC(=O)c2c(N)n(C)c(=O)n(C)c2=O)s1	-0.3	6.0	7.9	12.2	-13.6	2500	-6.7
Cc1[nH]c2ccccc2c1/C=C/c1nc2ccccc2c(=O)n1CCO	-3.9	1.3	6.6	6.8	-21.8	5027	5.7
O=C1C2C(C(=O)N1N=Cc1cc(Br)cc([N+](=O)[O-])c1O)C1C=CC2C12CC2 (stereo not given)	-1.8	.	-5.6	-8.1	.	.	12.9
COc1ccc(C)cc1NC(=O)CSc1nnc(-c2ccc(OC)c(OC)c2)n1N	2.4	-1.8	4.5	7.1	-8.0	5681	4.9
O=C(Cc1ccccc1)Nc1cccc(S(=O)(=O)N2CCCCCC2)c1	8.9	.	-2.7	4.4	-13.1	3642	3.0
O=C(OCC(=O)N1CCN(c2cccc(Cl)c2)CC1)c1ccco1	-0.5	.	-6.5	8.4	-6.3	3791	2.4
O=[N+]([O-])c1cc(/C=N\O)ccc1Oc1ccc(F)cc1	.	-3.7	.	.	-7.2	2654	.
CCc1nnc(SCc2ccc(OC)c(Br)c2)n1N	7.8	2.5	.	.	-25.3	4465	9.1
CSc1cccc(NC(=O)C2CCCN(S(=O)(=O)c3cccs3)C2)c1 (stereo not given)	-0.2	-3.1	2.4	4.1	-13.6	3964	-3.3
Cc1cc(Nc2cccc(F)c2)nc(NCc2ccccc2)n1	-25.5	-1.3	-8.9	13.5	-6.7	2228	-8.1
CCOC(=O)C1(Cc2cccc(OC)c2)CCCN(Cc2ccc(NC(C)=O)cc2)C1 (stereo not given)	-3.2	-5.8	-16.1	-14.8	-4.6	3421	-4.2
CCC(C)(C)NC(=O)C(c1ccc(OC)cc1)N(C(=O)CCC(=O)Nc1cc(C)on1)c1ccc(F)cc1 (stereo not given)	0.2	-2.8	2.5	-0.4	-21.8	6031	2.0
